Screens deposited in PubChem by Broad Institute.
Ecoli rRNA inh: inhibits bacterial ribosomal RNA function over humanized ribosomes; E. coli WT GFP vs humanized-ribosome RFP mutants, fluorescence, 24 h; active compounds read low; DMSO median 0, no signal -100; GFP signal change (wild-type ribosome), % (test concentration not listed); 350,000 tested, 1.6% active;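 active means significant combined selectivity score with lowered wild-type GFP, culture density cut under 30%, mutant RFP and density less affected; inactive means any of these conditions unmet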; further: one replicate is shown; some compounds called inactive have numbers as strong as hits
Ecoli rRNA inh OD600: recorded beside Ecoli rRNA inh, whose call it bears; OD600 change, %; measured here: OD600 growth;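 optical density of the mix in the first replicate; 0 = DMSO median and -100 = no signal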
Ecoli rRNA inh RFP: also measured in Ecoli rRNA inh; calls as there; RFP signal change, %; measured here: RFP humanized mutant strains;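 first replicate; 0 = DMSO median and -100 = no signal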
* = called active by the depositor; & = joins results of further samples. Some of the compounds tested; count on the stated rates, not on these rows.

SMILES	Ecoli rRNA inh	Ecoli rRNA inh OD600	Ecoli rRNA inh RFP
O=C1c2ccccc2-n2nnc(-c3ccccc3)c2C2c3ccccc3CCN12 (stereo unspecified)	12	11	5.0
COC(=O)[C@@H]1[C@@H](CO)[C@@H]2Cn3c(ccc(C4=CCCCC4)c3=O)[C@H]1N2Cc1ccccc1OC	-3	-12	7.8
O=C1NCN(c2ccccc2)C12CCN(C(c1ccnc3ccccc13)c1nnnn1-c1ccc3c(c1)OCCO3)CC2 (stereo unspecified)	8	9	2.7
O=C(Cc1cccnc1)N1CCCCN2[C@@H](CO)[C@@H](c3ccc(/C=C/c4ccccc4)cc3)[C@@H]2C1	-12	-39	14
Cc1cc(N2CCNC[C@@H]2C)ccc1N1CCN[C@H](C)C1	-6	-21	25
CCC(c1nnnn1-c1ccc(OC)cc1)N1CCC(n2c(=O)[nH]c3ccccc32)CC1 (stereo unspecified)	0	-5	7.9
O=C1NCN(c2ccccc2)C12CCN(C(c1cc3ccccc3o1)c1nnnn1C1CCCC1)CC2 (stereo unspecified)	-11	-4	4.3
O=C(O)[C@H]1[C@H](CO)[C@H]2Cn3c(ccc(-c4cccnc4)c3=O)[C@@H]1N2C(=O)Nc1cc(F)ccc1F	0	11	2.2
C[C@@H]1CN([C@H](C)CO)C(=O)c2c(c3ccccc3n2C)-c2ccccc2CO[C@H]1CN(C)C(=O)Oc1ccccc1	0	-6	6.5
CC(=O)N1C[C@@H]2N[C@H](C1)C2c1ccc(Br)cc1 (stereo partly specified)	1&2	3&8	0.7&-1.2
O=C(Cc1ccncc1)N1CCCCN2[C@H](CO)[C@@H](c3ccc(C#Cc4ccccc4F)cc3)[C@@H]2C1	-32	-68	1.4
COC(=O)C1=C(c2cccc(OCc3ccccc3)c2)C[C@@H]2CC[C@H]1N2C	2	-4	-2.8
O=S(=O)(c1ccc2ccccc2c1)N1Cc2cc(Br)ccc2-n2nncc2C1	19	30	5.0
CSCCC(c1nnnn1-c1ccc2c(c1)OCCO2)N1CCC(n2c(=O)[nH]c3ccccc32)CC1 (stereo unspecified)	1	-12	0.4
CN1[C@@H]2Cn3c(cccc3=O)[C@H]1[C@@H](C(=O)NCC1CC1)[C@@H]2CO	1	0	-0.5
O=c1[nH]c2ccccc2n1C1CCN(C(c2ccnc3ccccc23)c2nnnn2-c2ccc3c(c2)OCCO3)CC1 (stereo unspecified)	2	-7	-0.5
CC(C)CC#Cc1ccc([C@H]2[C@@H](CO)N3CCCCN(C(=O)Cc4ccccn4)C[C@H]23)cc1	6	-25	5.2
COC(=O)[C@@H]1[C@@H](CO)[C@@H]2Cn3c(ccc(-c4ccccc4)c3=O)[C@H]1N2CC1CCCCC1	0	-27	6.5
ClCCN(CCCl)c1ccc(C=Cc2ccncn2)cc1	-6	-14	20
CCOC(=O)[C@]12Cc3c(cc(OC)c(OC)c3OC)[C@H]1N(C)C(=O)c1ccccc12	10	-11	5.8
C/C=C/c1ccc(C2[C@@H]3CN(Cc4ccccn4)C[C@H]2N3)cc1 (stereo partly specified)	1	8	-2.6
C[C@@H]1CN([C@H](C)CO)C(=O)CCCn2nncc2CO[C@H]1CN(C)C(=O)Oc1cccc2ccccc12	-4&-2	1&-5	-1.1&-0.5
O=C1C=C(N2CC2)c2ccccc2C1=O	-5	-46	17
O=c1[nH]c2ccccc2n1C1CCN(C(c2nnnn2C2CCCC2)C2CC2)CC1 (stereo unspecified)	-1	-1	-5.5
O=C([C@H]1N[C@H]2c3cccc(=O)n3C[C@H]2[C@@H]1CO)N1CCCCC1	2	3	0.0
CCCCn1nnnc1C(c1cccc(OC)c1OC)N1CCC2(CC1)C(=O)NCN2c1ccccc1 (stereo unspecified)	-20	-19	1.5
COCC(=O)N1[C@@H]2c3ccc(C4=CCCC4)c(=O)n3C[C@H]1[C@H](CO)[C@H]2C(=O)OC	2	2	1.6
C[C@@]12CC[C@@H](c3cc4c(cc3C1)OCO4)N2c1ccccc1	-33	-57	-7.9
O=C(Cc1ccccn1)N1CCCCN2[C@H](CO)[C@@H](c3ccc(-c4ccc(F)cc4)cc3)[C@@H]2C1	-2	-17	9.1
O=C(Cc1ccncc1)N1CCCCN2[C@H](C1)[C@@H](c1ccc(C#CC3(O)CCCC3)cc1)[C@@H]2CO	10	-6	-1.4
O=C(O)[C@H]1[C@H](CO)[C@H]2Cn3c(ccc(-c4ccccc4)c3=O)[C@@H]1N2CC1CCCCC1	2	6	-3.4
COC(=O)[C@H]1[C@H](CO)[C@H]2Cn3c(ccc(C4=CCCCC4)c3=O)[C@@H]1N2C(=O)NC(C)C	-1	6	-0.5
O=C1OCCC1C(=O)c1ccccc1 (stereo unspecified)	14	17	-1.0
COc1ccc(-n2nnnc2C(CCc2ccccc2)N2CCC3(CC2)C(=O)NCN3c2ccccc2)cc1 (stereo unspecified)	9	3	1.3
C=CCN1C[C@H](C)N(C(c2ccc(C(=O)N(CC)CC)cc2)c2cccc(OC)c2)CC1C (stereo partly specified)	1	0	-2.5
CN1[C@@H]2CN(S(C)(=O)=O)C[C@H]1C2c1ccc(Br)cc1 (stereo partly specified)	2&-1	3&6	-2.8&1.6
NC(Cc1ccc(F)cc1)c1csc(Nc2ncccn2)n1 (stereo unspecified)	6	5	-0.2
CCOC(=O)[C@]12Cc3cc(C)ccc3[C@H]1N(C(C)C)C(=O)c1ccccc12	-49	-79	-19
O=[N+]([O-])c1ccc(N(CCO)CCO)c2c1no[n+]2[O-]	-39	-75	-14
COc1cccc(C(c2nnnn2C(C)(C)C)N2CCC3(CC2)C(=O)NCN3c2ccccc2)c1OC (stereo unspecified)	-1	2	3.4
COC(=O)[C@@H]1[C@@H](CO)[C@@H]2Cn3c(ccc(-c4ccc(F)cc4)c3=O)[C@H]1N2Cc1cccnc1	-2	-1	1.5
Cc1ccccc1S(=O)(=O)N1[C@@H]2c3ccc(-c4cccnc4)c(=O)n3C[C@H]1[C@H](CO)[C@H]2C(=O)O	3	7	-3.0
COc1ccc(-n2nnnc2C(c2cccc3ccccc23)N2CCC(n3c(=O)[nH]c4ccccc43)CC2)cc1 (stereo unspecified)	8	6	-1.6
N#Cc1cccc(-c2ccc([C@@H]3[C@@H](CO)N4CCCCN(C(=O)Cc5ccccc5)C[C@H]34)cc2)c1	-31	-56	5.1
CCOC(=O)CNC(=O)N1Cc2cc(-c3cccc(F)c3)ccc2-n2nncc2C1	-15	-26	-5.5
C/C=C/c1ccc(C2[C@@H]3CN(C(=O)c4cnccn4)C[C@H]2N3)cc1 (stereo partly specified)	7	14	-1.0
CN1CCCC2c3ccccc3CCC21 (stereo unspecified)	7	18	-2.5
COc1cccc(C(c2nnnn2C2CCCC2)N2CCC3(CC2)C(=O)NCN3c2ccccc2)c1OC (stereo unspecified)	10	1	0.2
COC(=O)[C@H]1[C@H](CO)[C@H]2Cn3c(ccc(-c4ccccc4)c3=O)[C@@H]1N2CC1CCOCC1	2	-2	0.8
COc1ccc(C#Cc2ccc([C@H]3[C@@H](CO)N4CCCCN(C(=O)Cc5ccncc5)C[C@H]34)cc2)cc1	-5	-29	19
O=c1[nH]c2ccccc2n1C1CCN(C(CCc2ccccc2)c2nnnn2C2CCCC2)CC1 (stereo unspecified)	3	9	-0.8
O=C(Cc1ccccn1)N1CCCCN2[C@H](CO)[C@H](c3ccc(Br)cc3)[C@H]2C1	4	2	-3.6
Cc1ccc(-[n+]2c(Cc3nn(-c4ccccc4)c(C)[n+]3-c3ccc(C)cc3)nn(-c3ccccc3)c2C)cc1	5	18	-0.5
COc1ccc(CCNCc2cc(OC)cc(OC)c2)cc1	11	9	-1.4
C/C=C/c1ccc([C@@H]2[C@@H](CO)N3CCCCN(C(=O)Cc4cccnc4)C[C@H]23)cc1	0	15	-0.5
CCCN1[C@@H]2Cn3c(ccc(-c4ccccc4)c3=O)[C@H]1[C@@H](C(=O)OC)[C@@H]2CO	1	-5	-2.1
COc1ccc(C(c2nnnn2-c2c(C)cccc2C)N2CCC3(CC2)C(=O)NCN3c2ccccc2)cc1 (stereo unspecified)	8	5	0.9
O=C(O)[C@H]1[C@H](CO)[C@H]2Cn3c(ccc(-c4ccccc4)c3=O)[C@@H]1N2C(=O)C1CCCCC1	2	-2	-1.8
O=C(Cc1c(-c2ccccc2)nc2ccc(Br)cn12)N1CCCC1	7	11	-1.3
O=C1NCN(c2ccccc2)C12CCN(C(c1ccnc3ccccc13)c1nnnn1C1CCCC1)CC2 (stereo unspecified)	0	2	5.8

The results go on.
SMILES	Ecoli rRNA inh	Ecoli rRNA inh OD600	Ecoli rRNA inh RFP
CC(=O)NCC1=C(c2ccc3ccccc3c2)C[C@@H]2CC[C@H]1N2Cc1ccco1	-1	11	3.2
CCC(=O)N1[C@@H]2Cn3c(ccc(C4=CCCC4)c3=O)[C@H]1[C@@H](C(=O)OC)[C@@H]2CO	3	14	1.0
COC(=O)[C@H]1[C@H](CO)[C@H]2Cn3c(ccc(C4=CCCCC4)c3=O)[C@@H]1N2Cc1ccccn1	-2	-5	1.0
Oc1cc(Cl)c(Cl)cc1Cl	5	22	2.1
CCc1cc(OC)c(CCN)cc1OC	-4	1	1.9
O=S1(=O)NCC2(CC2)CN1Cc1ccccc1	22	16	0.8
CC=Cc1ccc2n(c1=O)C[C@@H]1[C@@H](CO)[C@H](C(=O)O)[C@H]2N1S(=O)(=O)c1ccccc1C (mixture of isomers)	-1	5	-4.1
O=C(Cc1ccccn1)N1CCCCN2[C@@H](CO)[C@H](c3ccc(-c4ccccc4F)cc3)[C@@H]2C1	-3	1	-0.4
C[C@H]1CN([C@@H](C)CO)C(=O)CCCn2nncc2CO[C@@H]1CN(C)C(=O)Oc1ccc2ccccc2c1	-6	-2	-0.5
COC(=O)[C@H]1[C@H](CO)[C@H]2Cn3c(ccc(-c4cccc(F)c4)c3=O)[C@@H]1N2Cc1ccccc1	-6	-16	3.4
COc1ccc(CCN)cc1S(N)(=O)=O	5	6	-4.4
C[C@H](CO)N1C[C@H](C)[C@H](CN(C)C(=O)Oc2ccccc2)OCc2ccccc2-c2c(n(C)c3ccccc23)C1=O	-1	5	7.5
CC(C)C[C@H]1COc2cc(N3CCN(C)CC3)ccc2S(=O)(=O)N1	0	5	-4.1
COC(=O)[C@H]1[C@H](CO)[C@H]2Cn3c(ccc(-c4ccccc4F)c3=O)[C@@H]1N2C(C)=O	5	6	-0.4
Fc1ccc(CN2CC3NC(C2)C3c2ccc(Br)cc2)cc1 (stereo unspecified)	-4	-17	4.2
O=C(Cc1ccccn1)N1CCCCN2[C@H](C1)[C@H](c1ccc(Br)cc1)[C@@H]2CO	2	10	-1.2
CN1C2CN(CC(F)(F)F)CC1C2c1ccc(Br)cc1 (stereo unspecified)	2	-2	-1.9
O=C(Nc1ccc(C(=O)O)cc1)Oc1ccc(N(CCCl)CCCl)cc1	-3	-6	-2.7
Cc1ccc2c(c1)Oc1ccccc1N=C2	-2	-18	1.4
O=C(CCc1ccccc1)N1Cc2cc(N3CCCCC3)ccc2-n2nncc2C1	-4	-14	66
O=C(Cc1ccccn1)N1CCCCN2[C@H](CO)[C@@H](c3ccc(-c4ccc(F)cc4)cc3)[C@H]2C1	4	1	4.2
C[C@@H]1CN([C@H](C)CO)C(=O)CCCn2nncc2CO[C@@H]1CN(C)C(=O)Oc1cccc2ccccc12	-3	-8	-0.1

In the list so far, 14 contain an aryl methoxy group.
SMILES	Ecoli rRNA inh	Ecoli rRNA inh OD600	Ecoli rRNA inh RFP
COC(=O)[C@@H]1[C@@H](CO)[C@@H]2Cn3c(ccc(C4=CCCCC4)c3=O)[C@H]1N2Cc1ccccc1OC	-3	-12	7.8
CCC(c1nnnn1-c1ccc(OC)cc1)N1CCC(n2c(=O)[nH]c3ccccc32)CC1 (stereo unspecified)	0	-5	7.9
CCOC(=O)[C@]12Cc3c(cc(OC)c(OC)c3OC)[C@H]1N(C)C(=O)c1ccccc12	10	-11	5.8
CCCCn1nnnc1C(c1cccc(OC)c1OC)N1CCC2(CC1)C(=O)NCN2c1ccccc1 (stereo unspecified)	-20	-19	1.5
COc1ccc(-n2nnnc2C(CCc2ccccc2)N2CCC3(CC2)C(=O)NCN3c2ccccc2)cc1 (stereo unspecified)	9	3	1.3
C=CCN1C[C@H](C)N(C(c2ccc(C(=O)N(CC)CC)cc2)c2cccc(OC)c2)CC1C (stereo partly specified)	1	0	-2.5
COc1cccc(C(c2nnnn2C(C)(C)C)N2CCC3(CC2)C(=O)NCN3c2ccccc2)c1OC (stereo unspecified)	-1	2	3.4
COc1ccc(-n2nnnc2C(c2cccc3ccccc23)N2CCC(n3c(=O)[nH]c4ccccc43)CC2)cc1 (stereo unspecified)	8	6	-1.6
COc1cccc(C(c2nnnn2C2CCCC2)N2CCC3(CC2)C(=O)NCN3c2ccccc2)c1OC (stereo unspecified)	10	1	0.2
COc1ccc(C#Cc2ccc([C@H]3[C@@H](CO)N4CCCCN(C(=O)Cc5ccncc5)C[C@H]34)cc2)cc1	-5	-29	19
COc1ccc(CCNCc2cc(OC)cc(OC)c2)cc1	11	9	-1.4
COc1ccc(C(c2nnnn2-c2c(C)cccc2C)N2CCC3(CC2)C(=O)NCN3c2ccccc2)cc1 (stereo unspecified)	8	5	0.9
CCc1cc(OC)c(CCN)cc1OC	-4	1	1.9
COc1ccc(CCN)cc1S(N)(=O)=O	5	6	-4.4
